# A488 autofl = qHTS Assay for Spectroscopic Profiling in A488 Spectral Region | compound autofluorescence, A488 spectral region, dye equivalency; hits give high values | max dye equivalency, M | hit rate 0.1% among 59,000 | AID 591, 2007; active = above 10 nM dye equivalent; inconclusive = 1 to 10 nM; inactive = 1 nM or less; about half of its hits are not listed in these tables;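 further: highest value over a series up to 38 µM; compound alone in buffer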
#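 Autofluorescence read at ex 480/em 540 nm after 15 min RT in 100 mM Tris pH 8.0; compound signal normalized to A488 standard series on each plate, reported as dye-equivalent concentration at each test concentration.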
# AID923 = qHTS Assay for Allosteric/Competitive Inhibitors of Caspase-1: Spectroscopic Profiling in AFC Spectral Region. compound fluorescence, AFC spectral region (405/520 nm); almost no hit is shown here. Potency, µM (titrated, usually from 57.5 µM), for the others: top-dose fluorescence increase, actives largely listed as activators. hit rate 1.1% among 75,000; active means well fitted activation curve with a large enough effect; inconclusive means small, poorly fitted or top-dose-only effect;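 further: potency means the concentration at half of the fitted maximal effect; 0% is about no effect; scaled to a free AFC standard on each plate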
#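 Baseline compound fluorescence (AFC region, 405 nm ex/520 nm em) taken from the intercept of kinetic reads with 50 nM caspase-1 and 5 uM Ac-WEHD-AFC; normalized to an on-plate AFC standard curve; compounds titrated up to 57 uM.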
# TSHR agonist = qHTS Assay for Agonists of the Thyroid Stimulating Hormone Receptor; Thyrotropin receptor (Homo sapiens), P16473; HEK293-CNG-TSHR cells (CNG channel as cAMP sensor), membrane potential dye, cAMP; Potency, µM (doses to about 57.1 µM), for the others: top-dose activation, hits mostly activators; hit rate 0.48% among 73,000; AID 926, 2007; active = well fitted activation curve of enough size with the parental cells flat; inconclusive = any curve in the parental cells; inactive = parental cells flat and receptor cells flat or falling; further: potency means the concentration at half of the fitted maximal effect; % of control where 0% means no effect; weak receptor curves with flat parental cells got no call and are not listed
# Target sequence (P16473 whole entry, looked up): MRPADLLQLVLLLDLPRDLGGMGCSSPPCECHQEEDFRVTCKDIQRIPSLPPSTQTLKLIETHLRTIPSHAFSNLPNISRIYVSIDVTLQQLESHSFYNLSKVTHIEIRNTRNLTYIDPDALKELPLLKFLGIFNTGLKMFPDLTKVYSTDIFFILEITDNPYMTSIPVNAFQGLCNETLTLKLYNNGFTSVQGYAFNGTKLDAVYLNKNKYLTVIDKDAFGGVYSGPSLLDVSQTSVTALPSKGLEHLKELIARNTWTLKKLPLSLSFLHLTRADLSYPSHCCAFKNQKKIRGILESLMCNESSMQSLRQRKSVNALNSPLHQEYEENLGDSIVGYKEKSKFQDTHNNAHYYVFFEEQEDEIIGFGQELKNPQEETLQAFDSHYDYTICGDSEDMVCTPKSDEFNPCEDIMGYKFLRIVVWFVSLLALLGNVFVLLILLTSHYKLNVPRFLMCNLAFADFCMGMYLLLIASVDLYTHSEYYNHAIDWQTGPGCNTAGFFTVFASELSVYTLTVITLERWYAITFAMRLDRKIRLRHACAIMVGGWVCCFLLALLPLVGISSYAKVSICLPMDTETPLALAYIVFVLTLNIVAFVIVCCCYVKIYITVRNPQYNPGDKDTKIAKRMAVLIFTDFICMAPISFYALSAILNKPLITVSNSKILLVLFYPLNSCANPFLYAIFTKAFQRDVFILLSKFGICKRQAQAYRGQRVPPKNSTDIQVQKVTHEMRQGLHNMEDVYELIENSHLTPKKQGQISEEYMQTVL
#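 cAMP rise detected as CNG-channel membrane depolarization by fluorescent dye (emission 590 nm), 30 min after compound, following 60 min dye loading containing 100 uM RO 20-1724 at room temperature. Cells: TSHR/CNG HEK 293, with parental CNG HEK 293 as control.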
# A647 fluor = qHTS Assay for Spectroscopic Profiling in A647 Spectral Region | 59,000 tested, under 10 active | Compound fluorescence, A647 channel (570/671 nm), Tris buffer | max dye-equivalent concentration, M; active means above 1 µM dye equivalent; inconclusive means 0.1 to 1 µM; inactive means 0.1 µM or less;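 further: values scaled relative to a standard on each plate; highest value over a series up to 38 µM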
#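 Compound fluorescence was measured in 100 mM Tris buffer, pH 8.0, after 15 min at room temperature, using 570 nm excitation and 671 nm emission filters. Signal was normalized to a per-plate Alexa 647 standard curve and expressed as dye-equivalent concentration at each compound concentration.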
# Resorufin autofl = qHTS Assay for Spectroscopic Profiling in Resorufin Spectral Region; Compound fluorescence, resorufin region 547/598 nm, buffer; hits give high values; max dye-equivalent concentration, M; hit rate 0.04% among 59,000; AID 588, 2007; active = above 10 nM dye equivalent; inconclusive = 1 to 10 nM; inactive = 1 nM or less; a few of its hits are not listed in these tables; further: highest value over a series up to 38 µM
#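 Compounds in 100 mM Tris buffer, pH 8.0, incubated 15 min at room temperature, then read with 547 nm excitation and 598 nm emission filters. Fluorescence was converted to dye-equivalent concentration using an on-plate six-point resorufin standard curve.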
# * = called active by the depositor; i = inactive; ? = inconclusive; nt = no result given; & = joins results of further samples; [ ] = another dose, or the depositor's remark. Some of the compounds tested. The share of hits here may be higher or lower than overall.
SMILES,A488 autofl,AID923,TSHR agonist,A647 fluor,Resorufin autofl
COC(=O)[C@@]1(Cc2ccccc2)[C@H]2c3cc(C(=O)N4CCCC4)n(Cc4ccc(OC)c(OC)c4)c3C[C@H]2CN1C(=O)c1ccccc1,nt,1.9%,?,nt,nt
COc1ccc(NC(=O)CSc2nnc(C(C)C)n2N)cc1,i,-6.1%,3%,1.9e-08,i
Cc1cc(S(=O)(=O)NCc2ccc(S(N)(=O)=O)cc2)c(C)s1,i,2.0%,8%[11.4 µM],2.9e-08,i
Cc1cc(C)nc(SCc2nc(N)nc(-c3ccccc3O)n2)n1,i,-0.2%,9%,2.1e-08,i
COC(=O)c1ccc2c(=O)n(NC(C)=O)c(=S)[nH]c2c1,i,-1.6%,-2%,3.4e-08,i
O=C(CC(C(=O)O)C1CCCO1)NCc1ccccc1 (configuration not stated),nt,0.3%,0%,nt,nt
O=C(NCCc1ccccn1)C1CCCN(S(=O)(=O)Cc2ccccc2)C1 (configuration not stated),i,0.6%,17%,2.5e-08,i
CCOC(=O)Cc1nnc(NC(=O)CSc2ccccc2)s1,i,2.6%,0%,3.1e-08,i
Cc1cc(C)n(-c2cc(C)c(C)cc2Br)n1,i,0.5%,?,1e-09,i
COc1ccc(N2CCN(C3CC(=O)NC3=O)CC2)cc1 (configuration not stated),i,nt,nt,1.6e-09,i
c1ccc2c(c1)[nH]c1nc(SCCN3CCOCC3)nnc12,i,-1.6%,-16%,1e-09,i
O=C1C2ON(c3ccccc3)C(c3ccccc3F)C2C(=O)N1c1ccccc1 (configuration not stated),i,0.3%,?,3.1e-08,i
O=c1cc(N2CCN(c3ccccc3)CC2)[nH]c(=O)n1Cc1ccc(F)cc1,nt,-1.2%,4%,nt,nt
CC(=O)Nc1ccc(-c2nc3c(C)cccc3[nH]2)cc1,i,-0.2%,2%,1.1e-08,i
CCOC(=O)Cc1csc(NC(=O)CSc2nnc(-c3ccc(OC)cc3)n2C)n1,i,0.0%,0%,4.6e-09,i
Cc1nnc(SC(C)C(=O)Nc2ccc(Cl)cn2)n1Cc1ccccc1 (configuration not stated),i,-0.3%,?,2.8e-08,i
COC(=O)n1c(=O)oc2ccccc21,i,-1.5%,0%,1e-09,i
c1ccc(CCc2nn3c(Cn4nnc5ccccc54)nnc3s2)cc1,i,0.5%,13%,1e-09,i
C=C(Br)Cn1c(CC(C)C)nc2ccccc21,nt,-1.6%,?,nt,nt
CCCCOC(=O)c1cccc(NC(=O)CCC(=O)O)c1,nt,-1.4%,0%,nt,nt
CS(=O)(=O)N(CC(=O)O)c1cc(Cl)cc(Cl)c1,i,-0.1%,-1%,1e-09,i
COc1ccccc1C(=O)N1CCC(C(=O)c2ccc(F)cc2)CC1,i,-1.4%,-13%,1e-08,i
CCOc1ccc2c(c1)c1nnc(SCC(=O)N3CCCCC3C)nc1n2C (configuration not stated),i,0.1%,-5%,1e-09,i
CN1/C(=C\C(=O)COC(=O)Cn2nnc(-c3ccccc3)n2)C(C)(C)c2ccccc21,i,0.0%,9%,9.5e-09,?
N#Cc1nc(-c2ccc(F)cc2)oc1N1CCCC1,i,nt,nt,3.6e-09,i

# Later entries:
SMILES,A488 autofl,AID923,TSHR agonist,A647 fluor,Resorufin autofl
O=C(CN1C(=O)C2C3C=CC(C3)C2C1=O)NCCc1ccccc1Cl (configuration not stated),i,0.7%,5%,1e-09,i
CCOC(=O)c1cnc(SCc2ccccc2)nc1N,i,-2.3%,nt,7.6e-09,i
FC(F)(F)c1ccc(N2CCN(c3cc(-c4ccccc4)nc4ncnn34)CC2)nc1,i,2.6%,?,9.8e-09,i
CCOC(=O)c1oc2ccccc2c1CN1CCN(c2ccccc2)CC1,i,4.4%,?,9.1e-09,i
COc1ccc(-n2c(=O)c(C)nc3cnc(Nc4cccc(OC)c4)nc32)cc1,i,2.8%,?,2.9e-08,i
CCCCCOC(=O)NCC(O)c1ccccc1 (configuration not stated),nt,0.3%,-6%,nt,nt
COc1ccc(C(C)=O)cc1COC(=O)c1ccc(OCc2c(C)noc2C)cc1,i,0.8%,?,3.9e-09,i
Cc1cc(C)n(CC(O)COCc2ccco2)n1 (configuration not stated),i,1.2%,2%,6.8e-09,i
C[C@@H](C(=O)Nc1ccc2ccccc2c1)[C@@H]1C[C@@]1(C)[C@@H](NC(=O)c1cnccn1)c1ccccc1,nt,5.9%,?,nt,nt
CN(C)C(C(=O)NC1CCCCC1)c1ccc(Cl)cc1 (configuration not stated),i,7.2%,nt,1e-09,i
O=c1cnn(-c2ccccc2)c(-c2ccccc2)c1,i,-0.9%,-7%,1e-09,i
Cn1c(C(=O)O)c(CC(=O)NCc2cccnc2)c2ccccc21,i,1.7%,-2%,3.8e-09,i
COc1ccc(OC)c(NC(=O)c2cc3sccc3n2C)c1,i,1.8%,?,5.6e-09,i
Cc1ccc(NC(=O)CCNS(=O)(=O)c2ccc3c(c2)oc(=O)n3C)cc1C,i,-0.3%,2%,2.7e-08,i
COc1ncc2nc(CCc3ccccc3)c(=O)n(CCc3ccccc3)c2n1,i,3.5%,?,3.4e-08,i
COc1ccc(NC(=O)CSC2=C(C#N)C(c3ccco3)C3=C(CCCC3=O)N2)c(OC)c1 (configuration not stated),i,nt,nt,1e-09,i
Cc1ccc(S(=O)(=O)N2CCCCC2)cc1C(=O)Nc1ncn[nH]1,i,1.7%,1%,5.4e-09,i
COC(=O)c1cn(NC(=O)c2cnccn2)c(=O)c2ccccc12,i,1.0%,6%,1.4e-08,i
O=C(Cn1nc(C(F)F)cc1C1CC1)NCCC1=CCCCC1,i,-1.7%,?,1e-09,i
O=C(Nc1cccnc1)Nc1ccccn1,nt,1.1%,?,nt,nt
Cn1c(COc2ccc3ccccc3c2)nnc1SCC(=O)O,i,-1.2%,-2%,4.3e-09,i
CCN(CC)CCOC(=O)C1(C2CCCCC2)CCCCC1,i,-0.1%,?,4.2e-08&1.8e-08&3.3e-09,i
CCN(CCC(=O)Nc1cc(OC)cc(OC)c1)Cc1ccccc1,nt,-0.6%,19%,nt,nt
Cc1cc(C)n(C(=O)c2cccc(S(=O)(=O)N3CCCC3)c2)n1,i,-1.7%,?,3.3e-09,i
O=C(CCS(=O)CCC(=O)NCc1ccccc1)NCc1ccccc1,nt,1.5%,0%,nt,nt

# Following part
SMILES,A488 autofl,AID923,TSHR agonist,A647 fluor,Resorufin autofl
CCC1CO1 (configuration not stated),nt,2.7%,-3%,nt,nt
O=c1oc2ccccc2n1Cc1ccccc1Cl,nt,2.1%,16%,nt,nt
CC(=O)N1CC=C2C(C#N)=C(N)C(C#N)(C#N)[C@H](c3ccoc3)[C@H]2C1,i,nt,nt,6.1e-08,i
CCCn1c(SCC(=O)Nc2ccccc2C(=O)OCC)nc2c1c(=O)n(C)c(=O)n2C,i,1.4%,10%,3.1e-09,i
CC(C)c1ccc(OCC(O)Cn2cnc3ccccc32)cc1 (configuration not stated),nt,-1.3%,4%,nt,nt
CCCc1cc(=O)[nH]c(SCC(=O)N2CCC(C(=O)OCC)CC2)n1,i,-0.2%,-1%,1e-09,i
COCCn1c(=O)c(CCc2ccccc2)nc2cnc(Oc3cccc(Cl)c3)nc21,i,1.2%,3%,1.1e-08,i
O=C1CC(c2ccccc2)n2nc(NC(=O)c3cccs3)nc2N1 (configuration not stated),i,2.5%,?,3.4e-08,i
COCCn1c(C)cc(C(=O)COC(=O)c2c(C)nn(Cc3ccccc3)c2C)c1C,i,-0.1%,?,2.7e-08,i
Nc1nc(CN2CCN(Cc3ccccc3)CC2)nc(Nc2ccc3c(c2)OCCO3)n1,i,1.2%,13%,1e-09,i
O=C(C1CCC(=O)N1Cc1ccccc1Cl)N1CCN(c2ccc(F)cc2)CC1 (configuration not stated),i,0.7%,1%,5.6e-09,i
Cc1cc(C)c(C#N)c(SCC(=O)Nc2nnc(-c3ccccc3)s2)n1,i,9.0%,?,3.4e-08,i
Cc1ccc(N2CC(C(=O)Nc3ccc4c(c3)OCCO4)CC2=O)cc1 (configuration not stated),i,4.2%,-4%,9.2e-09,i
COc1ccc(CCNc2oc(COc3ccc(Br)cc3)nc2C#N)cc1OC,nt,1.6%,?,nt,nt
Cc1cccc(NC(=O)COc2ccccc2C)n1,i,0.3%,10%,1.1e-08,i
CCCn1c(=O)c(C(=O)Nc2ccccc2C(=O)OC)c(O)c2ccccc21,i,2.2%,29%,3e-08,i
COc1cc2nc(C3CCC3)n(NC(=O)C3CCCC(OC)C3)c(=O)c2cc1OC (configuration not stated),i,-1.3%,?,4.8e-08,i
COc1ccc(C)cc1S(=O)(=O)N1CCCC(C(=O)NCC2CCCO2)C1 (configuration not stated),i,3.0%,5%,1e-09,i
COCCn1c(C)cc(C(=O)CSc2nc(C)nc3sc4c(c23)CCC4)c1C,i,0.7%,?,3.8e-09,i
Cc1c(C(=O)N2CCN(c3ncccn3)CC2)sc2nc3n(c(=O)c12)CCCC3,i,0.0%,nt,1e-09,i
CN(C)CCSCCO,i,3.4%[11.5 µM],4%[11.4 µM],2.7e-08,i
Cc1csc(NC(=O)C(NS(=O)(=O)c2ccc(Br)s2)c2ccccc2)n1 (configuration not stated),i,1.5%,11%,3e-08,i
O=S(=O)(NCC(c1cccnc1)N1CCN(c2ccc(F)cc2)CC1)c1ccc(F)cc1 (configuration not stated),nt,-1.1%,-1%,nt,nt
O=C(Cn1nc(Cl)nc1Cl)Nc1ccccc1,i,-0.3%,-2%,2.7e-08,i
c1ccc(Cn2c(Sc3nnnn3-c3ccccc3)nnc2-c2ccccc2)cc1,i,2.3%,?,3.6e-09,i
c1ccc(-c2cccc(-c3ccccn3)n2)nc1,i,0.0%,-1%,1.2e-08,i
CCOC(=O)C1=C(C)SC2=NS(=O)(=O)CCN21,i,0.6%,5%,2.6e-09,i
O=c1cc(N2CCc3ccccc3C2)[nH]c(=O)n1-c1ccc(Br)cc1,i,-1.2%,4%,4.4e-09,i
OCC1(c2cc(C(F)(F)F)n[nH]2)CCCCC1,i,0.9%,-3%,2.8e-08,i
CCCN1CCN(C(c2cc3cc4c(cc3[nH]c2=O)OCO4)c2nnnn2C(C)(C)C)CC1 (configuration not stated),i,8.8%,-2%,4.2e-09,i

# By substructure: the entries above containing bromine
SMILES,A488 autofl,AID923,TSHR agonist,A647 fluor,Resorufin autofl
Cc1cc(C)n(-c2cc(C)c(C)cc2Br)n1,i,0.5%,?,1e-09,i
C=C(Br)Cn1c(CC(C)C)nc2ccccc21,nt,-1.6%,?,nt,nt
COc1ccc(CCNc2oc(COc3ccc(Br)cc3)nc2C#N)cc1OC,nt,1.6%,?,nt,nt
Cc1csc(NC(=O)C(NS(=O)(=O)c2ccc(Br)s2)c2ccccc2)n1 (configuration not stated),i,1.5%,11%,3e-08,i
O=c1cc(N2CCc3ccccc3C2)[nH]c(=O)n1-c1ccc(Br)cc1,i,-1.2%,4%,4.4e-09,i

# Sorted by number of heavy atoms (smallest number first): part of the list above
SMILES,A488 autofl,AID923,TSHR agonist,A647 fluor,Resorufin autofl
O=C1CC(c2ccccc2)n2nc(NC(=O)c3cccs3)nc2N1 (configuration not stated),i,2.5%,?,3.4e-08,i
Cc1cc(C)c(C#N)c(SCC(=O)Nc2nnc(-c3ccccc3)s2)n1,i,9.0%,?,3.4e-08,i
CCCN1CCN(C(c2cc3cc4c(cc3[nH]c2=O)OCO4)c2nnnn2C(C)(C)C)CC1 (configuration not stated),i,8.8%,-2%,4.2e-09,i
